# Source: PubChem BioAssay (National Center for Advancing Translational Sciences (NCATS))
# Cruzain Triton: qHTS Assay for Promiscuous and Specific Inhibitors of Cruzain (with detergent). Potency, µM, for inactives: max response, negative = inhibition, usual class: inhibitors. AID 1478, 2009. 200,000 compounds, 0.43% hits. Cruzipain (Trypanosoma cruzi), P25779. purified cruzain, Z-FR-AMC fluorescence, 0.01% Triton; active = well fitted curve in the direction sought with a large enough effect; inconclusive = small, poorly fitted or top-dose-only effect, or another doubt; inactive = no such curve, though single readings can be large; an effect the other way counts as inactive or inconclusive;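 also: plate controls were neutral wells for no effect and buffer without enzyme for full effect; nearly all actives have a fitted effect of over 40% in size; top concentration of the series not given in the record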
# Target sequence (P25779 123-467 limits assumed): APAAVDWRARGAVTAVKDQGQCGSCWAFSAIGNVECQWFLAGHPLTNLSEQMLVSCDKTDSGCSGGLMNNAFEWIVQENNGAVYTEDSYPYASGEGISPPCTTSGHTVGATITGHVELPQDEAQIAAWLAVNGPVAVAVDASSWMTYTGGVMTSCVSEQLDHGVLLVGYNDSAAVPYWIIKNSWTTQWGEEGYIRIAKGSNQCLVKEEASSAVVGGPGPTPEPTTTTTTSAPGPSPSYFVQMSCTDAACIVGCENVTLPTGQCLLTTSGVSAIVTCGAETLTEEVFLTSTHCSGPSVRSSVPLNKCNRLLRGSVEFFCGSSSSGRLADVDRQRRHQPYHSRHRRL
#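 Sodium acetate buffer (100 mM, pH 5.5) containing 5 mM DTT and 0.01% Triton X-100 hosted 1.5 nM cruzain and test compound for 15 min at room temperature. Cleavage of 2 uM Z-FR-AMC was then tracked by fluorescence.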
# StopGo reporter: High Throughput Screening for Foot and Mouth Disease Virus Antivirals; human cells with a luciferase reporter of 2A StopGo recoding; control for the full effect not named in the record; Potency, µM (doses to about 57.9 µM), without a hit: at the top dose signal change, negative = less light; 410,000 compounds, 1.2% hits; active = well fitted falling curve with a large enough effect; inconclusive = small, poorly fitted or top-dose-only effect; inactive = no such curve, though single readings can be large or run the other way; tested in HEK293T cells; also: % is scaled to controls: 0 for no effect and ±100 for the full control effect; nearly all actives have a fitted effect of over 45% in size; luciferase light after 4 h
# RE007 growth inh: qHTS Assay for Inhibitors of the HIV-1 protein Vpr; 360,000 compounds, 0.21% hits; AID 651644, 2012; Potency, µM (doses to about 92.2 µM), for the others: top-dose activity change, negative = less growth; S. pombe RE007 Vpr strain, BacTiter-Glo ATP luminescence, 24 h; control for the full effect not named in the record; active = well fitted falling curve with a large enough effect; inconclusive = small, poorly fitted or top-dose-only effect; inactive = no such curve, though single readings can be large or run the other way;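 also: % is scaled to controls: 0 for no effect and ±100 for the full control effect; nearly all actives have a fitted effect of over 50% in size; the assay follows cell death caused by Vpr and the record does not say whether a fall means rescue or toxicity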
#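 Fission yeast RE007 carrying one integrated HIV-1 vpr copy, seeded at OD 0.01 in PMG+AL medium with 23 nL pinned compound. Grown 24 h at 30 degrees; viability read by BacTiter-Glo luminescence after 5 min.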
# MARV entry inh: qHTS for inhibitors of binding or entry into cells for Marburg Virus. Marburg virus pseudotyped entry inhibition, cell reporter; control for the full effect not named in the record; about a third of the inactives were read at about 46 µM. AID 540276, 2011. Potency, µM (series often up to 37.8 µM), for the others: top-dose activity change, negative = inhibition, usual class: inhibitors. 300,000 compounds, 1.8% hits; active = well fitted inhibition curve with a large enough effect; inconclusive = small, poorly fitted or top-dose-only effect, or effect the other way; inactive = flat fitted curve, though single readings scatter; tested in HEK293 cells; about a fifth of its hits are not listed in these tables; also: % is scaled to controls: 0 for no effect and ±100 for the full control effect; luciferase read-out
# SARS PLpro yeast: qHTS of Yeast-based Assay for SARS-CoV PLP | AID 485353, 2010 | Potency, µM (titrated, usually from 32.9 µM), inactives show at the highest dose activity, positive = growth rescue | S. cerevisiae expressing SARS-CoV PLpro, growth rescue; control for the full effect not named in the record | 330,000 compounds, 0.19% hits; also: 0% is about no effect; nearly all actives have a fitted effect of over 55% in size; growth read by luminescence after 48 h
# NS1 inh: qHTS Assay for Inhibitors of Influenza NS1 Protein Function | S. cerevisiae slowed by influenza A NS1, growth recovery by OD600 | Potency, µM (highest dose often 46.1 µM), inactives show at the highest dose activity, positive = more growth | 270,000 compounds, 0.4% hits | AID 2326, 2010; also: actives are rising curves; nearly all actives have a fitted effect of over 50% in size
#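 OD600 was taken as the measure of yeast growth restored by compound in an NS1-expressing S. cerevisiae strain. Cells had been washed out of glucose medium and diluted 1:100 into galactose -URA medium, pH 6.0.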
# LASV entry inh: qHTS for Inhibitors of binding or entry into cells for Lassa Virus | 300,000 compounds, 1.2% hits | Lassa virus pseudotype entry inhibition, cell reporter; control for the full effect not named in the record | Potency, µM (series often up to 37.9 µM), for the others: at the top dose activity change, negative = inhibition, actives largely listed as inhibitors; active means well fitted inhibition curve with a large enough effect; inconclusive means small, poorly fitted or top-dose-only effect, or effect the other way; inactive means flat fitted curve, though single readings scatter; tested in HEK293 cells; also: % is scaled to controls: 0 for no effect and ±100 for the full control effect; nearly all actives have a fitted effect of over 50% in size; luciferase read-out
# Cruzain noTriton: qHTS Assay for Promiscuous and Specific Inhibitors of Cruzain (without detergent); 200,000 compounds, 2.3% hits; Potency, µM, inactives show max response, negative = inhibition, usual class: inhibitors; Cruzipain (Trypanosoma cruzi), P25779; purified cruzain, Z-FR-AMC fluorescence, no detergent; active = well fitted curve in the direction sought with a large enough effect; inconclusive = small, poorly fitted or top-dose-only effect, or another doubt; inactive = no such curve, though single readings can be large; an effect the other way counts as inactive or inconclusive;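 also: plate controls were enzyme without inhibitor for no effect and buffer without enzyme for full effect; nearly all actives have a fitted effect of over 40% in size; top concentration of the series not given in the record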
#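 Purified cruzain at 1.5 nM, pre-incubated 15 min with compound at room temperature in 100 mM sodium acetate pH 5.5, 5 mM DTT, 0.00005% Triton X-100. Reaction started with 2 uM Z-FR-AMC; AMC fluorescence increase over 60 s gives rate.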
# Active calls of the source: *; ? = inconclusive; . = no result given; & = joins results of further samples; [ ] = dose if it differs, or a comment. Unless noted, calls follow the shape of the dose curve; as a rule, active means well fitted rising curve with a large enough effect; inconclusive means small, poorly fitted or top-dose-only effect; inactive means no such curve, though single readings can be large or run the other way. Potency is read from the fitted curve at half-maximal effect. Compounds as they come (roughly 4.6% active in at least one column).
SMILES	Cruzain Triton	StopGo reporter	RE007 growth inh	MARV entry inh	SARS PLpro yeast	NS1 inh	LASV entry inh	Cruzain noTriton
CCCN1CCN(C(=S)Nc2ccc(S(N)(=O)=O)cc2)CC1	.	-8.7%	-14.8%	-12.9%[46.1 µM]	0.6%	.	?	.
Cc1cccc(Nc2nnc(SC3CCOC3=O)s2)c1C (stereo not drawn)	.	-6.3%	-16.7%	?	3.7%	.	-5.4%[46.1 µM]	.
O=C(NCC1CCCN1S(=O)(=O)c1cccs1)C(=O)Nc1ccc(F)cc1F (stereo not drawn)	.	2.1%	-21.4%	11.0%	-5.0%	.	-5.9%	.
CCOC(=O)c1ccc(NC(=O)C(CC)Sc2nc3ccncc3[nH]2)cc1 (stereo not drawn)	-1.0%	2.3%	.	2.2%[46.1 µM]	.	.	28.9%[46.1 µM]	-11.2%
CC(C)Cn1c(CN2CCCCC2C)nc2c1c(=O)n(C)c(=O)n2C (stereo not drawn)	-1.6%	-19.0%	-9.5%	.	1.7%	-0.6%	.	6.1%
COc1ccccc1CNC(=O)Cc1csc2nc(-c3ccccc3)cn12	-3.8%	-0.1%	.	.	.	.	-8.8%[46.1 µM]	4.5%
CC1=C(C#N)C(c2ccoc2)C(C(=O)OCc2ccccc2)=C(N)S1 (stereo not drawn)	-6.9%	?	-7.3%	-17.2%	-7.9%	-51.5%	15.0%	-6.8%
CCOC(=O)c1sc(=S)n(CC)c1NC(=O)CC	-2.1%	17.7%	12.4%	-0.2%	12.1%[6.58 µM]	8.2%	4.0%	-6.5%
O=C(Nc1ccccc1C(=O)O)c1cc(S(=O)(=O)N2CCCCC2)c(Cl)cc1Cl	.	33.0%[activator]	-1.9%	-9.1%[46.1 µM]	0.0%	?	?	.
COc1ccccc1CCNC(=O)Cc1c(C)c2cc3c(C)coc3cc2oc1=O	-1.1%	3.2%	.	-4.3%[46.1 µM]	.	.	-9.5%[46.1 µM]	8.5%
O=c1[nH]c2ccc(NC(=S)Nc3ccccc3)cc2[nH]1	.	37.5%[activator]	3.5%	?	1.0%	.	-2.8%	.
Cc1ccc(-c2cc(N)n(-c3ccccc3)n2)cc1	0.4%	52.3%[activator]	?	3.7%	-6.4%	?	18.6%	-4.2%
CC(C)(C)OC(=O)NCCCC[C@H](NC(=O)c1[nH]cnc1C(=O)N[C@@H](Cc1ccccc1)C(=O)OC(C)(C)C)C(=O)OC(C)(C)C	.	?	5.7%	.	-0.1%	?	.	.
CC(Sc1nnc(-c2ccc(OC(F)F)cc2)o1)C(=O)NCC1CCCO1 (stereo not drawn)	.	-14.8%	-6.4%	.	-0.1%	-1.9%	.	.
O=C(Cn1cc2c(n1)CCCCC2)NCc1cccs1	.	23.5%	-3.8%	.	-1.1%	-5.0%	.	.
COc1cc(OC)cc(C(=O)Nc2ccc3oc(-c4ccccc4C)nc3c2)c1	-2.2%	-6.1%	.	.	.	.	1.1%[46.1 µM]	-16.2%
CCN(C(=O)CCNC(=O)Cn1cnc2ccccc2c1=O)c1ccccc1F	.	14.7%	21.9%	9.4%[46.1 µM]	0.7%	4.3%	-10.8%	.
CCOc1ccc(S(=O)(=O)NCCC(=O)N(C)Cc2ccc(C)o2)cc1	.	22.5%	61.1%	17.7%	-5.3%	.	?	.
O=C(NCc1cccc(Cl)c1)c1ccc(NC(=O)N2CC3CCCN3c3ccccc32)cc1 (stereo not drawn)	-3.1%	-11.1%	.	.	.	.	-9.4%[46.1 µM]	?
O=C(CSCc1ccc(Cl)cc1)N/N=C/c1c(Cl)cccc1Cl	-3.1%	10.5%	-21.4%	-5.5%	-4.9%	1.1%	-16.0%	-4.1%
CCC(O)(c1ccccc1)C(CN1CCOCC1)c1ccccc1 (stereo not drawn)	.	-14.5%	-2.6%	8.5%[46.1 µM]	-1.1%	0.6%	-3.6%[46.1 µM]	.
Oc1ccc(-c2nccc(-c3cccs3)n2)cc1	-4.2%	64.8%[activator]	-16.6%	-4.2%	-6.4%	-68.3%	8.5%	8.4%
COc1ccccc1NS(=O)(=O)c1cc(NC(=O)c2ccccc2[N+](=O)[O-])ccc1N1CCOCC1	.	46.3%[activator]	6.8%	?	-2.4%	.	-26.4%[46.1 µM]	.
COc1ccc(N(CC(=O)NCc2ccc(F)cc2)S(=O)(=O)c2c(C)n[nH]c2C)cc1	-1.5%	-15.1%&-10.8%	0.8%	-22.6%&-22.6%[46.1 µM]	-1.8%	-8.8%	-26.4%[46.1 µM]	-12.9%
CCCCCCCCCCC(C)(C)C(=O)Nc1c(OC)cc(OC)cc1OC	-12.6%	-9.6%	.	-10.7%&-10.7%	.	.	?	?
COc1ccccc1N1CCN(C(=O)c2c(C)oc3ncn(CC(C)C)c(=O)c23)CC1	-1.2%	-15.6%	.	.	.	.	8.7%[46.1 µM]	-3.2%
COc1ccc(C(=O)c2c[nH]c(C(=O)NCCCn3ccnc3)c2)cc1	.	-2.4%	-10.4%	-0.1%	1.4%	.	-1.7%	.
CCOC(=O)N1CCc2c(sc3c2c(=O)n(-c2ccc(Cl)cc2)c(=O)n3Cc2cccc(OC)c2)C1	0.1%	0.0%	.	-6.3%[46.1 µM]	.	.	8.9%[46.1 µM]	-6.7%
CCCCOC(=O)c1ccc(NC(=O)CSc2nncn2C)cc1	0.2%	-3.0%	-8.9%	17.9%	-0.3%	4.6%	10.1%	1.9%
COc1cccc2c1Oc1cc([N+](=O)[O-])cc(N(C)C(C)=O)c1C=C2	.	26.4%	-8.5%	-28.9%[46.1 µM]	-0.7%	1.3%	-10.8%[46.1 µM]	.
CSc1nnc2c3cc(F)ccc3n(Cc3ccccc3)c2n1	-28.7%	2.3%	-2.9%	4.3%	6.1%	-5.6%	0.1%	-15.7%
COc1ccccc1NC(=O)N1CCN(c2ccccn2)CC1	4.2%	-17.2%	-4.1%	0.4%	-9.3%	-31.2%	.	-7.6%
O=C(O)C1CCCN(S(=O)(=O)c2ccccc2)C1 (stereo not drawn)	.	-5.6%	-3.4%	-5.0%&-5.0%[46.1 µM]	0.4%	0.2%	1.1%	.
CC(=O)c1sc(NC(=O)CCN2C(=O)c3ccccc3C2=O)nc1C	.	-26.4%	-4.0%	?	0.4%	5.8%	1.2%	.
COc1cccc(C(=O)NC(C)C(c2cccs2)N2CCOCC2)c1 (stereo not drawn)	-2.6%	?	4.3%	.	-2.8%	1.5%	.	1.6%
COc1ccc(C2CC3CC(c4ccccc4)N2O3)cc1 (stereo not drawn)	-0.9%	.	8.4%	21.3%	5.3%	5.0%	-0.6%	-0.6%
CCC(Sc1nc2cc(OC)c(OC)cc2c2nc(-c3ccccc3)nn12)C(=O)Nc1cccc(C)c1 (stereo not drawn)	-1.0%	-11.4%	.	-0.7%[46.1 µM]	.	.	6.7%[46.1 µM]	2.9%
Cc1cc(C)nc(SCC(=O)NC2CCCCC2C)n1 (stereo not drawn)	.	-10.3%	0.4%	8.1%[46.1 µM]	2.4%	.	2.0%	.
CN(C(=O)c1ccc(S(=O)(=O)N(C)C)cc1)c1ccc2ccccc2c1	.	-9.7%	4.0%	3.1%[46.1 µM]	5.9%	14.9%	-1.7%	.
CCOCCCNC(=O)C(c1ccc(C)cc1)N(Cc1cccs1)C(=O)c1ccc(NC(C)=O)cc1 (stereo not drawn)	-1.7%	-21.5%	.	?	.	.	?	?
O=C1CN(C(=O)COC(=O)c2cccnc2Cl)c2ccccc2N1	.	9.3%	0.6%	1.6%	1.2%	.	?	.
CCOC(=O)c1c(NC(=O)CNCCO)sc(C)c1C	0.9%	0.0%	3.2%	23.2%	0.0%	0.4%	3.4%	4.9%
CCOC(=O)N1CCN(S(=O)(=O)c2ccc3c(c2)CC(C)N3C(=O)C2CC2)CC1 (stereo not drawn)	.	-21.8%	-2.9%	-24.3%[46.1 µM]	-1.9%	-5.4%	-20.1%[46.1 µM]	.
O=c1c2ccccc2nc(SCc2cc(F)cc3c2OCOC3)n1Cc1ccco1	5.3%	-7.3%	4.8%	?	1.3%	-36.9%	?	?
Cc1cc(C(=O)OCC(=O)N2CC(C)OC(C)C2)c2ccccc2n1 (stereo not drawn)	.	-13.8%	-8.0%	?	1.5%	.	?	.
Clc1ccc(CSc2nnc(NC3=NCCCCC3)s2)cc1	-3.1%	-26.2%	-17.3%	-28.3%	-6.5%	-50.0%	-11.7%	-5.2%
O=C(Nc1ccc(S(=O)(=O)N2CCCC2)cc1)c1cc(F)c(F)cc1Cl	.	-2.6%	5.5%	-3.7%	11.1%	-10.2%	-25.3%	.
CCOC(=O)c1csc(NC(=O)c2ccc3c(c2)OCCO3)n1	.	-36.4%	-17.6%	?	0.1%	3.9%	?	.
O=C1CS/C(=C\[N+](=O)[O-])N1c1ccccc1	-0.5%	12.3%	?	-3.2%	-18.0%	6.9%	21.7%	5.3%
O=C(COC(=O)CCc1nc2ccccc2c(=O)[nH]1)NC(=O)NC1CCCC1	0.4%	-8.2%	50.9%	-21.1%	6.8%	9.7%	-3.4%	1.3%
CCCc1ccc(OCc2ccc(C(=O)NCc3cccnc3)o2)c(OC)c1	.	-9.6%	-14.5%	-15.2%	-1.6%	-3.8%	-28.4%	.
CCCCN(C(=O)C1CCCC1)C1CCS(=O)(=O)C1 (stereo not drawn)	.	-12.5%	0.5%	3.6%	-3.2%	.	?	.
COC(=O)CCn1nnc(-c2ccc(C(C)C)cc2)n1	-3.4%	?	-26.2%	?	-10.2%	-11.0%	?	5.4%
COc1ccc(OC)c(CCNC(=O)c2ccc3c(c2)N(Cc2ccc(F)cc2)CCS3)c1	.	-11.4%	-8.3%	.	-0.3%	23.1%	.	.
COc1cccc(-c2noc(CCC(=O)NC3CCCCC3)n2)c1	-6.2%	.	-11.4%	1.3%	0.4%	-2.6%	-15.0%	-3.8%
